Screens: PubChem, Johns Hopkins Ion Channel Center
KCNQ2 block = KCNQ2 potassium channel inhibitors, primary screen, cell-based, CHO-K1, FluxOR thallium flux, B-score (AID 2156). 310,000 tested, 1.1% active. B-score at 10 µM. 20 min; hits give low values; only compounds with negative scores are shown here; some inactives read as strong as hits. Potassium voltage-gated channel subfamily KQT member 2 (Rattus norvegicus), O88943;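 active means fluorescence ratio B-score at most minus 3 library SDs, with starting brightness B-score within 2 library SDs, cut at about -5.5 in these data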
Target sequence (O88943 whole entry, looked up): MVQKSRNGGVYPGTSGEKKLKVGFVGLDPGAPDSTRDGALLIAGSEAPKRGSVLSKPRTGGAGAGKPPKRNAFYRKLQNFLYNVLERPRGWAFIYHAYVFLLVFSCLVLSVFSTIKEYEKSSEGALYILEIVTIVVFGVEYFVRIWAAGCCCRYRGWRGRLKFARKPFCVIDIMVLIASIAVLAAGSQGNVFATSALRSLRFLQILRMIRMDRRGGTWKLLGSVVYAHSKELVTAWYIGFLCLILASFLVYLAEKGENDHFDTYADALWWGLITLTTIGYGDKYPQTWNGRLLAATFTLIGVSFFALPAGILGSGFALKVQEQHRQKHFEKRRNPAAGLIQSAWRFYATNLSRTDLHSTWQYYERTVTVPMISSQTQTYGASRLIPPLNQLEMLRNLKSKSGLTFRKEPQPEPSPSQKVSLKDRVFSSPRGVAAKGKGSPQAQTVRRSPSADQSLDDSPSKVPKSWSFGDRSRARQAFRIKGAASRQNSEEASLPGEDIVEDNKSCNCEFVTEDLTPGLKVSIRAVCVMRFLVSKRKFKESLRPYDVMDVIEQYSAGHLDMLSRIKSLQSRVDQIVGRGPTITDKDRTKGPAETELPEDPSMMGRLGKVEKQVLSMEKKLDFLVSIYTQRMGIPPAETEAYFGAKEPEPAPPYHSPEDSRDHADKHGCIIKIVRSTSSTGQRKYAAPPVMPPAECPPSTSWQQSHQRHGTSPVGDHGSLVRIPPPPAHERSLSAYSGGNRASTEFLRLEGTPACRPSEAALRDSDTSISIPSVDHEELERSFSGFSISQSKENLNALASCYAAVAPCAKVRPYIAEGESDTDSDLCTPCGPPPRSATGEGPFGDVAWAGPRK
KCNQ2 block baseline = recorded beside KCNQ2 block, whose call it bears; B-score; measured here: initial fluorescence intensity artifact check;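 brightness before thallium and not channel activity; 0 = typical well and far values either way flag optical interference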
An asterisk follows results filed as active; i = inactive. An excerpt, so the mix of outcomes need not match the whole.

SMILES	KCNQ2 block	KCNQ2 block baseline
CCOc1ccc(OCC(=O)Nc2ccccc2C(F)(F)F)cc1	i	1.6
Cc1occc1-c1nnc(SCC(=O)N2CCOCC2)o1	i	-0.07
CCOc1ccc(CCNC(=O)c2nn(C)c3c2CS(=O)(=O)c2ccccc2-3)cc1OCC	i	3.4
CCOC(=O)N1CCN(C(=S)NC(=O)C23CC4CC(CC(C4)C2)C3)CC1	i	-0.77
Clc1ccc(-c2cn3ccccc3n2)cc1	i	1.4
COc1ccc(NC(=O)c2cccc3ccccc23)cc1	i	2.1
CCCC[C@@H](CNC)NC[C@H](Cc1ccc(O)cc1)NCCc1ccc(OCC)cc1	i	-3.4
CCOC(=O)C1=C(C)N=C(SC)N(C)C1c1ccccc1 (stereo not given)	i	0.28
CCOc1ccc(C2CC(=O)c3c([nH]c(C(=O)OC)c3C)C2)cc1OC (stereo not given)	i	1
COC(=O)CN1C(=O)[C@H]2[C@@H](/C=C/c3ccccc3)N3C(=O)CN(Cc4ccccc4)C(=O)[C@@]3(C)[C@H]2C1=O	i	-0.83
Cc1nn(-c2ccccc2)c(C)c1C(=O)NCCc1ccc(Cl)cc1	i	-1.5
CN(C(=O)/C=C/c1ccc(F)cc1)C1CCCCC1	i	-0.03
CCC(CC)c1nnc(NC(=O)COc2ccc3c(c2)OCO3)s1	i	0.58
COCCCNC(=S)Nc1ccccc1[N+](=O)[O-]	i	0.95
CN(C)c1cccc(C(=O)OCC(=O)Nc2ccccc2Sc2ccccc2)c1	i	0.47
O=C(Nc1ccc(NS(=O)(=O)c2ccccc2)cc1)c1ccc(Cl)cc1	i	-0.6
O=c1cc(-c2ccccc2)oc2cc(OCc3ccccc3)cc(O)c12	i	3.7
COc1ccc(CNC(=O)CCCn2nc(C)c3c(C)n(-c4ccccc4)nc3c2=O)cc1	i	-0.45
COc1cc(NC(=O)CN2CCC(C(N)=O)(N3CCCCC3)CC2)c(OC)cc1Cl	i	0.39
COc1ccc(N(CC(=O)NCCSCc2ccco2)S(=O)(=O)c2ccccc2)cc1Cl	i	0.24
Fc1cccc(F)c1/C=N/Nc1ccccn1	i	-0.15
COc1ccc(C(=O)Nc2cc(C(=O)O)cc(C(=O)O)c2)cc1Cl	i	-0.32
CC(C)C1C(C#N)=C(N)SC(N)=C1C#N	i	-0.3
O=C(Nc1ccc(Cc2ccncc2)cc1)c1ccc([N+](=O)[O-])o1	i	1.1
O=C(NCC(=O)N1CC=C(c2ccccc2)CC1)c1ccccc1Br	i	-2.1

Looked up by structure from the list above:
SMILES	KCNQ2 block	KCNQ2 block baseline
COc1ccc(C(=O)Nc2cc(C(=O)O)cc(C(=O)O)c2)cc1Cl	i	-0.32
COc1ccc(NC(=O)c2cccc3ccccc23)cc1	i	2.1
CN(C(=O)/C=C/c1ccc(F)cc1)C1CCCCC1	i	-0.03
O=C(NCC(=O)N1CC=C(c2ccccc2)CC1)c1ccccc1Br	i	-2.1
CCOc1ccc(CCNC(=O)c2nn(C)c3c2CS(=O)(=O)c2ccccc2-3)cc1OCC	i	3.4
CC(C)C1C(C#N)=C(N)SC(N)=C1C#N	i	-0.3

(list continues)
SMILES	KCNQ2 block	KCNQ2 block baseline
CN(C)S(=O)(=O)c1cccc(NC(=O)COC(=O)/C=C/c2cccs2)c1	i	-1.1
COC(=O)c1c(-c2ccc(C)cc2)csc1NC(=S)NC(=O)c1ccc(F)cc1	i	0.37
O=C(Oc1ccc(N2C(=O)CCC2=O)cc1)c1ccco1	i	0.02
Cc1ccc(SCCC(=O)N2CCC(C)CC2)cc1	i	-2.2
CC1CC(C)CN(C(=O)c2ccc(NS(=O)(=O)c3ccc4[nH]c(=O)[nH]c4c3)cc2)C1 (stereo not given)	i	0.17
O=C(c1cccc(S(=O)(=O)N2CCCCCC2)c1)N1CCN(c2ccccc2F)CC1	i	-0.14
Nc1nonc1-n1nnc(C(=O)N/N=C/c2cccnc2)c1CSc1ccc(Cl)cc1	i	-0.29
Cc1cc(NC(=O)CS(=O)(=O)c2cn(Cc3ccccc3Cl)c3ccccc23)no1	i	1.5
COc1ccc(NC(C#N)c2ccccc2OCc2ccccc2)cc1 (stereo not given)	i	0.83
O=C(CS(=O)CC(=O)N(CC(=O)NC1CCCC1)c1ccc2c(c1)OCCO2)Nc1ccc(F)cc1 (stereo not given)	i	-0.96
C#CCN1C(=O)C(O)(CC(=O)c2cc(OC)ccc2OC)c2ccccc21 (stereo not given)	i	0.32
CCOC(=O)c1c(CN(C)C)oc2cc(CN(C)C)c(O)c(CSc3ccccc3)c12	i	-0.8
CC(C)(C)N/N=C1\CC(c2ccccc2)Oc2ccccc21 (stereo not given)	-7.2*	-0.82*
CC(=O)NCCc1ccc(S(=O)(=O)NCc2ccc3c(c2)OCO3)cc1	i	0.89
CC(=O)CC(C)=NCCN=C(C)CC(C)=O	i	-0.01
CC(=O)N1c2ccc(S(=O)(=O)NCCC(=O)Nc3ccc(F)cc3)cc2CC1C (stereo not given)	i	-0.03
Cc1cccn2c(Nc3ccccc3)c(-c3ccccn3)nc12	i	-0.03
CC(C)C(C(=O)Nc1ccc2c(c1)OCCOCCOCCOCCO2)N1C(=O)c2ccccc2C1=O (stereo not given)	i	-0.02
CCOC(=O)/C(C#N)=C/Nc1ccsc1C(C)=O	i	-2.7
COCCNC(=O)C(=O)Nc1ccc(Cl)cc1C	i	1.5
CCn1c(SCC(=O)Nc2ccc(NC(C)=O)cc2)nc2c1c(=O)n(C)c(=O)n2C	i	0.76
Cc1oc2c(cc(NS(=O)(=O)c3ccc(Cl)cc3)c3ccccc32)c1C(=O)O	i	-1.5
O=C(O/N=C1/CCCc2occc21)c1ccc(F)cc1	i	-0.02
CN(CCOc1ccc(-c2ccn(S(=O)(=O)c3c(Cl)cccc3Cl)n2)cc1)c1ccccn1	i	0.91
Cc1cc2c(c(=O)n1Cc1ccccn1)C(C(C)C)C(C#N)=C(N)O2 (stereo not given)	i	2.5

More structures follow.
SMILES	KCNQ2 block	KCNQ2 block baseline
Clc1ccc(-n2nnnc2-c2ccno2)cc1	i	1.6
CCOC(=O)CNC(=O)C1(c2ccccc2)CCCC1	i	1.1
Cc1ccc(CN(C(=O)c2cc(=O)c3cc(Cl)c(C)cc3o2)C2CCS(=O)(=O)C2)cc1 (stereo not given)	i	-0.3
CN(C)c1nc(Oc2ccc(N)cc2)nc(N(C)C)n1	i	-1.4
O=S(=O)(c1ccc(F)cc1)N1CCCC(CO)C1 (stereo not given)	i	-0.41
O=C1c2ccccc2-c2cccnc21	i	-0.25
COc1cc(CN2CCCC(C(=O)N3CCc4ccccc4C3)C2)cc(OC)c1OC (stereo not given)	i	-0.06
COc1cccc(C2NC(=O)CCC2[N+](=O)[O-])c1OC (stereo not given)	i	0.45
CCn1nc(C(=O)OCC(=O)c2ccc3c(c2)OCCO3)c2ccccc2c1=O	i	-1.2
CN(C[C@H](Cc1ccccc1)N(C[C@@H](CC1CCCCC1)N(CCc1ccccc1)N=O)N=O)N=O	i	0.21
CCOc1ccc(S(=O)(=O)N2CCC(C(=O)N3CCOCC3)CC2)cc1C	i	-0.58
Cc1ccc(-c2nc(Nc3ccc(N4CCOCC4)cc3)c3ccccc3n2)cc1	i	0.82
CCCNC(=O)COC(=O)c1n[nH]c2ccccc12	i	0.02
Cc1ccc(CCC(=O)Nc2ccc(S(N)(=O)=O)cc2)o1	i	1.4
CC(C)NC(=O)CSc1nc(Cc2cccs2)nc2ccccc12	i	0.56
Cc1cccc(OCc2nnc(SCc3cc(=O)[nH]c4ccccc34)n2-c2ccccc2)c1	i	2.2
COc1ccc(-c2cc(C(F)(F)F)nc(N3CCN(Cc4ccccc4)CC3)n2)cc1OC	-5.6*	-0.18*
Nc1nonc1C(=O)NC(c1ccccc1)c1ccccc1	i	3.2
Nc1cc(S(=O)(=O)Nc2ccccc2Cl)ccc1N1CCOCC1	i	-0.11
Cc1nnc2sc(SCC(=O)N3CCCCC3)nn2c1=O	i	-1.5
COCCn1c(SCc2cccc(F)c2)nc2cc(C(=O)OC)ccc2c1=O	i	0.27
NC1=NN=C(N2N=C(c3ccc(Br)cc3)CC2(O)C(F)(F)F)n2ncnc2C1 (stereo not given)	i	0.61
O=C(Nc1ccncc1)C1COc2ccccc2O1 (stereo not given)	i	-2.2
CCn1c(=O)cc(OCC(=O)NCCc2ccc(OC)c(OC)c2)c2ccccc21	i	1.2
OC(c1nc2ccc(F)cc2[nH]1)C(O)c1nc2ccc(F)cc2[nH]1 (stereo not given)	i	-0.1

Continuation:
SMILES	KCNQ2 block	KCNQ2 block baseline
COc1ccc(Nc2nc(N)nc(CN3CCC(Cc4ccccc4)CC3)n2)cc1	i	0.79
COc1cccc(CNC(=O)c2nnn(CC(=O)Nc3ccc(Br)cc3)c2N)c1	i	-0.02
CCOC(=O)CSC1=C(C#N)C(=O)NC(c2ccc(OC)cc2)S1 (stereo not given)	i	1
Cc1ccc(C)c(C(=O)NC(C)CCc2ccccc2)c1 (stereo not given)	i	-2.4
CN1CCN(c2ccc(S(=O)(=O)N3CCCCC3)cc2NC(=O)COc2cccc(Cl)c2)CC1	i	0.8
CC1CCCC(C)N1C(=O)COC(=O)CSc1ccc(C(N)=O)cc1[N+](=O)[O-] (stereo not given)	i	-1.6
CCc1nn(C(C)C(=O)NCCN2CCN(c3cccc(C)c3C)CC2)c(=O)c2cc3occc3n12 (stereo not given)	i	-0.78
CC(=O)N1N=C(c2cccc(Cl)c2)OC1c1cccc([N+](=O)[O-])c1 (stereo not given)	i	-2.6
NC(=O)c1ccc(/C=N/O)[n+](Cc2ccccc2)c1	i	6.8
CCCCSc1nnc(-c2ccc(OC)cc2)n1C	i	-2.1
N#Cc1ccccc1Sc1ccccc1C(=O)OCC(N)=O	i	2
CC1CN(S(=O)(=O)c2cccc(C(=O)NCc3ccc4c(c3)OCO4)c2)CC(C)O1 (stereo not given)	i	-0.02
CN(O)/C=C/C(=O)c1ccc(Br)cc1	i	0.61
COc1ccc(C(=O)c2ccc(N3CCN(C(=O)c4ccc(F)cc4)CC3)c(F)c2)cc1Br	i	0.7
COc1ccc(-c2nc(NC3=NCCCCC3)sc2C)cc1	i	-0.06
CC(=O)N1CCC(=NNC(=O)c2cccs2)CC1	i	-0.6
O=C(Nc1ccncc1)C1c2ccccc2Oc2ccccc21	i	-0.43
Cc1nc(C)c(-c2ccc(SCC(=O)Nc3cccc(F)c3)nn2)s1	i	-0.45
COC(=O)c1cc(S(=O)(=O)NCc2ccc3c(c2)OCO3)cn1C	i	-1.1
CCc1noc(C)c1C(=O)N1CCCSC1=Nc1ccccc1C(C)C	-5.7*	1.6*
Cc1ncsc1CCC(=O)N1CCCC(Nc2ccc(C(C)C)cc2)C1 (stereo not given)	i	-0.49
CCOC(=O)Cn1nc(C)c(NC(=O)CCc2ccccc2)c1C	i	0.01
Cc1ccc(C(=O)NC2CCCCCC2)cc1S(=O)(=O)N1CCOCC1	i	-1.9
CCc1noc(C)c1C(=O)N1CCN(S(=O)(=O)c2ccc(C)cc2C)CC1	i	0.07
Cc1ccccc1C(=O)N1CCC(C(=O)Nc2ccc(S(=O)(=O)N(C)C(C)C)cc2)CC1	i	-0.84

(continued)
SMILES	KCNQ2 block	KCNQ2 block baseline
COc1ccccc1CNS(=O)(=O)c1c(C)nc2scc(C)n2c1=O	i	0.52
C=CCNC(=O)N[C@@H](CCSC)C(=O)OC	i	2.5
CC(C)(C)c1ccc(/C=N/OCC(=O)NCc2ccc(F)cc2)cc1	i	0.52
CCCCNC(=S)N=Nc1c(O)n(Cc2ccccc2)c2ccccc12	i	0.73
O=C(Nc1ccccc1C(F)(F)F)N1CCCCCC1	i	1.3
Cc1ccc(NC(=O)Nc2ccon2)cc1	i	-0.03
O=C(O)c1cccc(Nc2ccc([N+](=O)[O-])cn2)c1	i	3.5
Cc1cc(C)c(NC(=O)CSc2nc3c(c(=O)n2C)SC(C)C3)c(C)c1 (stereo not given)	i	0.45
Cn1c(C(=O)N[C@@H](Cc2ccccc2)C(=O)O)cc2cc(Cl)ccc21	i	1.9
Cc1ccc(N(CC(=O)NCCc2ccccc2)C(=O)CCC(=O)Nc2cc(C)ccn2)cc1	i	-0.63
Cc1cc(C(=O)NCCCn2ccnc2)cs1	i	0.06
C/C(=N\OCC(=O)Nc1ccc(F)c(F)c1F)c1cc2ccccc2o1	i	-2.1
Cc1ccc(SCC(=O)OC(C)C(=O)NCc2ccccc2)cc1C (stereo not given)	i	0.22
CNC(=O)NC(=O)CN1C(=O)NC2(CCOc3ccccc32)C1=O (stereo not given)	i	-1.1
Cc1ccccc1N(CC(=O)NCCc1ccccc1)C(=O)c1ccc(N2CCCC2)nc1	i	-0.65
CCOC(=O)CSc1nc(Nc2ccc3c(c2)OCO3)c2ccccc2n1	i	-0.66
Clc1ccc(CN=C(Nc2ccccc2)NC2CCCCC2)cc1	i	0.7
Cc1nc(Nc2cc(F)ccc2C)c2nnn(Cc3ccccc3)c2n1	i	0.44
CCOC(=O)C1=C(C)Nc2sc(C(=O)c3ccc(OC)cc3)c(N)c2C1c1ccc(C(=O)OC)cc1 (stereo not given)	i	-1.8
COc1ccc(OC)c(NC(=O)c2ccc(CN(c3cc(Cl)ccc3C)S(=O)(=O)c3ccccc3)cc2)c1	i	0.07
CCOC(=O)CSc1ccc(C(=O)Nc2ccc(OC)cc2)cn1	i	0.29

An excerpt of these results, bar-delimited:
SMILES | KCNQ2 block | KCNQ2 block baseline
CC(C)(C)c1ccc(/C=N/OCC(=O)NCc2ccc(F)cc2)cc1 | i | 0.52
CCOC(=O)CSc1ccc(C(=O)Nc2ccc(OC)cc2)cn1 | i | 0.29
Cc1ccc(N(CC(=O)NCCc2ccccc2)C(=O)CCC(=O)Nc2cc(C)ccn2)cc1 | i | -0.63
CNC(=O)NC(=O)CN1C(=O)NC2(CCOc3ccccc32)C1=O (stereo not given) | i | -1.1
CCOC(=O)CSc1nc(Nc2ccc3c(c2)OCO3)c2ccccc2n1 | i | -0.66
